From PubChem BioAssay
Rango dissoc inh – qHTS Assay for Inhibitors of RanGTP induced Rango (Ran-regulated importin-beta cargo) - Importin beta complex dissociation. Biochemical FRET Rango-importin beta, RanGTP-induced dissociation. 340,000 compounds, 0.071% hits. Potency, µM (doses to about 46.1 µM), for the others: at the top dose activity change, negative = inhibition. AID 540253, 2011. Snurportin-1 (Homo sapiens) + GTP-binding nuclear protein Ran (Homo sapiens) + Importin …; active means falling FRET ratio curve, often poorly fitted, with flat reads before Ran was added; inconclusive means other falling curves, or compound fluorescence or quenching; inactive means flat or rising ratio curve;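 further: potency means the concentration at half of the fitted maximal effect; % of control where 0% means no effect; nearly all actives have a fitted effect of over 45% in size; -100% = wells without RanGTP and RCC1; the record marks most hits as doubtful in a second field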
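Quantitative HTS using a FRET biosensor: 0.1 uM Rango, 0.25 uM importin beta, 0.6 uM Ran, 2 mM GTP, 0.2 uM RCC1 final, PBS with DTT, Tween-20 and BSA. Post-read taken 45 min after Ran addition.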
miR-21 reporter – qHTS Assay for Modulators of miRNAs and/orActivators of miR-21; HeLa miR-21 FLuc reporter, luciferase, 48 h; Potency, µM (top dose mostly 38.3 µM), for the others: at the highest dose reporter change, positive = more light; AID 2288, 2010; 340,000 tested, under 10 active; active = well fitted rising curve with a large enough effect; inconclusive = small, poorly fitted or top-dose-only effect; inactive = no such curve, though single readings can be large or run the other way;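 further: % of control where 0% means no effect; miR-21 action dims this reporter so a rising signal means less miR-21 action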
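HeLa cells endogenously expressing miR-21, stably carrying CMV-driven firefly luciferase with a downstream miR-21 binding site, 2000 cells/well. Titrations up to approximately 40 uM, 48 hours; luciferase luminescence read.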
GLA inh pH 4.5 – qHTS Assay for Inhibitors of Human alpha-Galactosidase at pH 4.5. AID 1467, 2008. Alpha-galactosidase A (Homo sapiens), P06280. purified enzyme, 4-MU-alpha-Gal fluorescence, pH 4.5. activity change, negative = inhibition, % at 105 µM. 230,000 tested, under 10 active; inconclusive = small, poorly fitted or top-dose-only inhibition, or a rising curve; inactive = flat fitted curve, though single readings scatter; no compound was filed as active;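 further: 0% = full activity with enzyme and -100% = basal without enzyme; dose as in the result columns while the protocol names 77 µM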
Rango complex inh – qHTS Assay for Inhibitors of Rango (Ran-regulated importin-beta cargo) - Importin beta complex formation. Importin subunit beta-1 (Homo sapiens), Q14974. Rango CFP/YFP FRET sensor + importin beta, 45 min. Potency, µM (doses to about 92.2 µM), for inactives: top-dose inhibition of complex formation. 340,000 compounds, 0.031% hits; active = rising FRET ratio curve, often small or poorly fitted; inconclusive = mostly compound fluorescence or quenching in the first reads; inactive = flat curves in all reads;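 further: potency means the concentration at half of the fitted maximal effect; 0% = DMSO wells and 100% = buffer wells lacking importin beta; nearly all actives have a fitted effect of over 15% in size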
Target sequence (Q14974 whole entry, looked up): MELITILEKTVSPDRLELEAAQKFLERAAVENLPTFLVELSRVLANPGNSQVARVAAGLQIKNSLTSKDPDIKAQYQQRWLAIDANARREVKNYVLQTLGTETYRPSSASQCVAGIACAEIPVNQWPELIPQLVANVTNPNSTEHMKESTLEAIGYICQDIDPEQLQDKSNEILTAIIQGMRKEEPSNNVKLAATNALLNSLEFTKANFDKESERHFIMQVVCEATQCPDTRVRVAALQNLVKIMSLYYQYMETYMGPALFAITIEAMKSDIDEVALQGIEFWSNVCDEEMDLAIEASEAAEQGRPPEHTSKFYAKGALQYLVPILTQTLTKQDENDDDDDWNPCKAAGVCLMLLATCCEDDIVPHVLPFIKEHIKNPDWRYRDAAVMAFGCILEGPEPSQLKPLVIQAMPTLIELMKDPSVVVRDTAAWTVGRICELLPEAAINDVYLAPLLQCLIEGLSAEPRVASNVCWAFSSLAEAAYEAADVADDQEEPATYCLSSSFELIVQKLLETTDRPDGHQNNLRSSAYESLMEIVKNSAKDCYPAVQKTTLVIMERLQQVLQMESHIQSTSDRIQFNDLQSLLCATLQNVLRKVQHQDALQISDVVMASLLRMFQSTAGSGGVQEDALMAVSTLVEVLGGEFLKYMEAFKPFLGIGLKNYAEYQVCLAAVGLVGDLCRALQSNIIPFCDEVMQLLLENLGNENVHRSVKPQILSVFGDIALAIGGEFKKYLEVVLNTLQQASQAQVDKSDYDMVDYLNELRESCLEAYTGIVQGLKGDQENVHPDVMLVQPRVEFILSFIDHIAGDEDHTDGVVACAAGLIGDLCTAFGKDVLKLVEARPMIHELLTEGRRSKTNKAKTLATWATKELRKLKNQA
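Inhibition scored from the CFP 486 nm/YFP 530 nm FRET ratio 45 min after adding 0.125 microM importin beta to 50 nM Rango biosensor preincubated 5 min with compound (room temperature, PBS with DTT, Tween-20, BSA). No-importin wells as positive control.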
Numbers without * were called inactive; ? = inconclusive; . = no result given. An excerpt; rates above refer to the full screens.

Preview:
cpd	compound	Rango dissoc inh	miR-21 reporter	GLA inh pH 4.5	Rango complex inh
1	CC(C)(CO)NC(=O)CC1C(=O)NCCN1Cc1ccc(-c2ccccc2)cc1 (configuration not stated)	-3%	5%	5	4.0%
2	C=CCOC(=O)C1CC=CCC1C(=O)Oc1ccc(F)cc1F (configuration not stated)	-1%	-6%	-4	-0.1%
3	CC1CCc2c(sc(NC(=O)Cn3nc(C(=O)O)c4ccccc4c3=O)c2C#N)C1 (configuration not stated)	0%	-3%	4	-1.4%
4	CCC1CCCCN1S(=O)(=O)c1ccc2c(c1)CCN2C(C)=O (configuration not stated)	-1%	0%	.	3.9%

The listing, repeating the preview:
cpd	compound	Rango dissoc inh	miR-21 reporter	GLA inh pH 4.5	Rango complex inh
1	CC(C)(CO)NC(=O)CC1C(=O)NCCN1Cc1ccc(-c2ccccc2)cc1 (configuration not stated)	-3%	5%	5	4.0%
2	C=CCOC(=O)C1CC=CCC1C(=O)Oc1ccc(F)cc1F (configuration not stated)	-1%	-6%	-4	-0.1%
3	CC1CCc2c(sc(NC(=O)Cn3nc(C(=O)O)c4ccccc4c3=O)c2C#N)C1 (configuration not stated)	0%	-3%	4	-1.4%
4	CCC1CCCCN1S(=O)(=O)c1ccc2c(c1)CCN2C(C)=O (configuration not stated)	-1%	0%	.	3.9%
5	Cc1cc(/C=N/NC(N)=O)c(C)n1C1CCCCC1	0%	-18%	-2	0.7%
6	O=C(NCc1cccc(C(F)(F)F)c1)N1CCN(C(=O)c2ccccc2)CC1	3%	.	.	0.7%
7	CC1(NC(=O)COc2ccccc2-c2ccccc2)CCS(=O)(=O)C1 (configuration not stated)	0%	-3%	0	1.3%
8	CN1CCN(S(=O)(=O)c2cnccc2N2CCN(c3cccc(Cl)c3)CC2)CC1	-8%	-5%	-5	6.9%
9	CC(=O)c1cccc(NC(=O)CSc2ncc(C(=O)Nc3ccccc3)c(=O)n2C)c1	27%	.	.	0.9%
10	COc1ccc(/C=C/C(=O)NCCn2c(C)cc3ccccc32)cc1OC	-12%	-4%	1	1.4%
11	CCC(=O)c1cc2c(cc1NC(=O)c1ccccc1)OCCO2	18%	0%	0	6.4%
12	COc1ccc(C(=O)Nc2nc3nccc(-c4ccccc4)n3n2)cc1	1%	-7%	-4	-3.5%
13	CCOC(=O)N1CCC(=C(C#N)C(=O)Nc2cc(OC)ccc2OC)CC1	-13%	-2%	-8	0.9%
14	Cc1ccc2nc(NC(=O)COC(=O)c3ccco3)sc2c1	-10%	-35%	5	-1.9%
15	CCOC(=O)C1CCN(C(=O)CCS(=O)(=O)c2ccc3c(c2)n(C)c(=O)c(=O)n3C)CC1	-10%	1%	.	0.2%
16	CCCC(=O)Nc1ccc2c(c1)nc(CCN1CCCCC1)n2C	-1%	-5%	0	-3.2%
17	COc1ccc(-n2c(C)cc(C(=O)CN3CCCCC3)c2C)cc1	5%	-4%	3	-2.2%
18	CC(=O)N1c2ccc(S(=O)(=O)N3CCC(C(=O)NCc4ccccc4)CC3)cc2CC1C (configuration not stated)	-20%	0%	.	-1.5%
19	Cn1cc(S(=O)(=O)N2CCOCC2)cc1C(=O)Nc1cccc(Cl)c1	4%	5%	.	-2.0%
20	O=C(Nc1nccs1)C1CCCN1S(=O)(=O)c1ccc(Cl)cc1 (configuration not stated)	-16%	10%	-8	-0.4%
21	CC(C)CCN1CCN(Cc2nc(-c3ccccc3)cs2)CC1CCO (configuration not stated)	-9%	-1%	-4	2.5%
22	COc1ccc(-n2nc3c(c2NC(=O)c2ccco2)CS(=O)(=O)C3)cc1	6%	-4%	.	0.0%
23	O=S(=O)(c1cccc(COc2ccc(Cl)cc2Cl)c1)N1CCOCC1	3%	-3%	.	0.4%
24	Cc1cnc(C(=O)OCC(=O)NCCCc2ccccc2)cn1	6%	1%	-7	-3.6%
25	O=C1CCC(C(=O)OCC(=O)Nc2cc(Cl)ccc2F)=NN1	-1%	.	.	2.8%

4 compounds picked at random from the list so far:
cpd	compound	Rango dissoc inh	miR-21 reporter	GLA inh pH 4.5	Rango complex inh
2	C=CCOC(=O)C1CC=CCC1C(=O)Oc1ccc(F)cc1F (configuration not stated)	-1%	-6%	-4	-0.1%
7	CC1(NC(=O)COc2ccccc2-c2ccccc2)CCS(=O)(=O)C1 (configuration not stated)	0%	-3%	0	1.3%
22	COc1ccc(-n2nc3c(c2NC(=O)c2ccco2)CS(=O)(=O)C3)cc1	6%	-4%	.	0.0%
25	O=C1CCC(C(=O)OCC(=O)Nc2cc(Cl)ccc2F)=NN1	-1%	.	.	2.8%

The results go on.
cpd	compound	Rango dissoc inh	miR-21 reporter	GLA inh pH 4.5	Rango complex inh
26	COc1ccc(CCNC(=O)C(=O)NCC2OCCN2S(=O)(=O)c2cc(F)ccc2F)cc1OC (configuration not stated)	-4%	9%	.	1.5%
27	O=S(=O)(NCCc1ccccn1)c1ccc(-c2ccccn2)s1	10%	0%	-1	-4.2%
28	Cc1ccc(S(=O)(=O)Nc2c(C)n(C)n(-c3ccccc3)c2=O)cc1C(=O)OC(C)C(=O)N(C)c1ccccc1 (configuration not stated)	6%	-1%	2	2.5%
29	Cc1ccc(N(CC(=O)NC(C)(C)C)C(=O)CS(=O)CC(=O)Nc2ccc3c(c2)OCO3)cc1 (configuration not stated)	-15%	5%	0	2.2%
30	Cc1ccsc1/C=N/n1cnc2sc(C)c(C)c2c1=O	0%	-23%	-11	-5.0%
31	CC1CN(c2nc3c(c(=O)n(C)c(=O)n3C)n2Cc2c(Cl)cccc2Cl)CC(C)O1 (configuration not stated)	17%	.	.	?
32	COc1ccc(C(=O)N2CC(=O)Nc3ccccc32)cc1S(=O)(=O)N1CCOCC1	?	5%	6	5.4%
33	OCC(O)C(O)C(O)c1cnn(-c2ccccc2)n1 (configuration not stated)	0%	.	.	2.3%
34	CCOc1cc(-c2noc(CCCC(=O)NC3CCCCC3)n2)ccc1OC	-8%	9%	.	-0.1%
35	CC(C)CCn1c(SCC#N)nc2c(sc3ccccc32)c1=O	5%	-6%	3	5.9%
36	CCn1c(SCC(=O)c2ccc(O)c(O)c2)nnc1-c1ccccc1OC	22%	-16%	0	3.2%
37	CCS(=O)(=O)N1CCC(C(=O)N2CCN(c3ccccc3)CC2)CC1	16%	-1%	-2	-4.5%
38	COc1cccc2cc(C(=O)c3ccccc3)oc12	8%	-60%	-6	1.9%
39	O=C(CCCc1c[nH]c2ccccc12)N[C@@H](Cc1c[nH]c2ccccc12)C(=O)O	-4%	-2%	.	1.8%
40	Cc1ccc(C(CCN)c2ccco2)cc1 (configuration not stated)	-9%	-5%	-4	-3.7%
41	C/C(=N\NC(=O)Cc1ccc(Br)cc1)c1cccnc1	1%	-7%	.	3.2%
42	Cc1cc(S(=O)(=O)N2CCOCC2)ccc1OCC(=O)N1CCOCC1	0%	0%	.	-0.8%
43	Cc1nccc2[nH]c(=O)c(C(=O)NCCCN(C)C3CCCCC3)cc12	.	-3%	1	.
44	COc1ccc(-c2noc(CCC(=O)O)n2)cc1	-7%	7%	7	-4.0%
45	COc1ccc(CN([C@H](CO)CC(C)C)S(=O)(=O)N(Cc2ccccc2)[C@H](CO)CC(C)C)cc1	5%	.	.	-2.4%
46	CCOC(=O)c1ccc(NC(=O)Oc2cc(C)c(Cl)cc2C(C)C)cc1	7%	-7%	-1	2.9%
47	O=C(CN(C1CC1)S(=O)(=O)c1ccc(S(=O)(=O)N2CCCCCC2)cc1)Nc1ccccc1	-6%	-1%	-1	-3.6%
48	CCCCNc1c(-c2cccc(SC(C)CC)c2)nc2ccc(Cl)cn12 (configuration not stated)	?	.	.	?
49	Cc1ccccc1C(=O)NC(=S)Nc1ccc(N2CCN(C(=O)c3ccccc3)CC2)cc1	3%	-4%	.	0.0%
50	Cc1noc(C)c1COc1ccc(C(=O)OCC(N)=O)cc1	-2%	0%	4	-4.6%

From compound 49 as far as 50, copied from above:
cpd	compound	Rango dissoc inh	miR-21 reporter	GLA inh pH 4.5	Rango complex inh
49	Cc1ccccc1C(=O)NC(=S)Nc1ccc(N2CCN(C(=O)c3ccccc3)CC2)cc1	3%	-4%	.	0.0%
50	Cc1noc(C)c1COc1ccc(C(=O)OCC(N)=O)cc1	-2%	0%	4	-4.6%

Continuation.
cpd	compound	Rango dissoc inh	miR-21 reporter	GLA inh pH 4.5	Rango complex inh
51	O=C(C1CCN(S(=O)(=O)c2cccnc2)CC1)N1CCN(c2cccc(Cl)c2)CC1	7%	3%	-3	-0.6%
52	CC(C)c1ccc2nc(NC(=O)C3CC3)sc2c1	0%	-26%	.	1.0%
53	Cc1cccc(Nc2nc3ccccc3n3nnnc23)c1	-14%	-12%	7	-3.5%
54	Cc1c(O)ccc2c(=O)c(-c3nncn3-c3ccccc3)coc12	22%	0%	-2	0.7%
55	Cc1cc(NC(=O)COC(=O)CCS(=O)(=O)c2ccc(C)c(C)c2)no1	-13%	-1%	.	-1.7%
56	Cc1ccc(C(=O)NNC(=O)c2cccc(C)c2)cc1	3%	1%	-28	4.1%
57	CCOC(=O)c1nc2ccccc2nc1C	7%	-9%	-3	-2.2%
58	CC(C#N)Sc1ncnc2sc(-c3ccccc3)cc12 (configuration not stated)	-1%	-19%	.	-1.0%
59	CCC/C(=N\NC(=O)c1ccco1)c1ccc(Cl)s1	1%	-13%	.	3.9%
60	CC1CCCCN1C(=O)Cn1c(=O)n(CCC(=O)NCc2ccco2)c(=O)c2sccc21 (configuration not stated)	-3%	-1%	-4	-4.6%
61	Cc1ccc(NC(=O)Nc2cccc(C(F)(F)F)c2)nc1	4%	-23%	0	?
62	Cc1cccc(NC(=O)C2(c3ccc([N+](=O)[O-])cc3)CCCC2)c1	18%	4%	-3	-1.2%
63	COc1cccc(OC)c1C(=O)N1CCN(c2ccccn2)CC1	6%	0%	3	-1.4%
64	Cc1cc(NC(=O)CSCC(=O)Nc2cc(Cl)ccc2N2CCN(C)CC2)no1	5%	.	.	-3.2%
65	COc1ccccc1NC(=O)CSc1nc(O)c(Cc2ccccc2)c(=O)[nH]1	17%	0%	4	-3.2%
66	N#CC1(C#N)COC23CCCCC2C1(C#N)C(=N)O3 (configuration not stated)	?	-2%	3	?
67	CCCc1cc(=O)[nH]c(SCC(=O)N(C)C2CCCCC2)n1	-6%	.	.	-0.2%
68	CS(=O)(=O)Nc1ccc(C2=NN(C(=O)c3ccco3)C(c3ccccc3)C2)cc1 (configuration not stated)	-9%	0%	0	-4.7%
69	Cc1cc(NC(=O)c2ccco2)c(=O)n(Cc2c(F)cccc2Cl)c1	13%	0%	.	-1.4%
70	CC(C)CCNC(=O)c1ccc(CS(=O)(=O)Cc2ccccc2F)o1	-6%	2%	3	0.0%
71	CCCOC(=O)NC(CC)COC(=O)Nc1cc(C)ccc1C (configuration not stated)	2%	-4%	-6	1.2%
72	Cc1cc(OCCOc2cccc3cccnc23)c(C)cc1Cl	-2%	1%	-10	2.5%
73	O=C(c1cccc(Oc2ccc([N+](=O)[O-])cc2Cl)c1)N1CCOCC1	-1%	-1%	.	0.1%
74	O=C(c1cccc(S(=O)(=O)NCc2ccccc2)c1)N1CCCC1	7%	0%	12	5.0%
75	CCOC(=O)c1c(C)oc2ccc(NS(=O)(=O)c3ccc4c5c(cccc35)C(=O)N4)cc12	-2%	-8%	-14	-4.4%
76	COc1ccc(S(=O)(=O)NC(N)=NCCc2ccc(OC)c(OC)c2)cc1C	-8%	-15%	-7	?
77	Cc1ccc(NCc2nnc(SCC(=O)c3ccccc3)n2Cc2ccco2)c(C)c1	3%	-13%	-30	-3.6%
